T cruzi inh = T. cruzi replication inhibition; T. cruzi beta-gal in NIH3T3, luminescence, 90 h; inhibition, % (no concentration beside the values); 300,000 compounds, 1.4% hits;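 active means mean inhibition across valid replicates above about 55%, limit read from the data; inconclusive means mean below that limit but half or more replicates reach it; inactive means mean below it, under half of replicates reach it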;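 further: signal also drops with host cell toxicity which is not excluded here; 0% = plate median of DMSO wells and 100% = zero luminescence signal; higher percent means less beta-gal luminescence so fewer parasites; stock transfer was 50 nL into about 50 µL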
A1 inh = inhibitors of the anti-apoptotic protein A1, read as caspase activation | caspase activation, % (test concentration not listed) | 330,000 compounds, 0.066% hits | MEF A1-2A-BIM cells, Caspase-Glo 3/7 luminescence, 3 h; percent of clofoctol response, vehicle zero;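 active means over half of replicate activation scores above 10%, or exactly half above 10 with the replicate mean above 10; inconclusive means replicate mean below 10 yet half the replicates above 10; inactive means over half of replicates below 10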;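 further: wells of about 30 µL received 50 nL stock; many hits fall short of the cut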
MLL AF4-AF9 inh = blocks AF4 peptide binding to human AF9. P42568. AlphaScreen, biotin-AF4 peptide binding to FLAG-AF9. inhibition, % at 10 µM. 350,000 compounds, 0.47% hits;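 active means every replicate reaching a set inhibition limit, whatever the replicate mean, cut at about 25% in these data; inconclusive means mean inhibition reaches that limit but some replicates miss it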;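 further: 0% = plate neutral control median and 100% = total signal loss; the record names both 10 and 1 µM as test concentration; the first replicate is given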
Target sequence (P42568 whole entry, looked up): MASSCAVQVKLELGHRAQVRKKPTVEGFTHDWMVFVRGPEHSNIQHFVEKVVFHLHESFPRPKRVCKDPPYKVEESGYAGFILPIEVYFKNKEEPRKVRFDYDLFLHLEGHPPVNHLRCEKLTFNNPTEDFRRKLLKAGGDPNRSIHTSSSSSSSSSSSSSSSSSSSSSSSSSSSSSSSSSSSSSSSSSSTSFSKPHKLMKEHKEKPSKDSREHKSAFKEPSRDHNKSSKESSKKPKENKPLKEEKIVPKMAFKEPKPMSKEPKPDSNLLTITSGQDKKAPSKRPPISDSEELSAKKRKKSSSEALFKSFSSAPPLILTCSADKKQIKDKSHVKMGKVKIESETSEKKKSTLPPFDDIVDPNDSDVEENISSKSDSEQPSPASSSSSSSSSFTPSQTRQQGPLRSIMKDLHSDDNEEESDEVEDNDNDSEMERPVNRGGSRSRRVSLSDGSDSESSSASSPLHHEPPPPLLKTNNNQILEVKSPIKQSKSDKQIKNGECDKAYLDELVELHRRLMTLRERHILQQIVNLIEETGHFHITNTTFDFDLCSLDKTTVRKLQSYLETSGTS
Ecoli rRNA inh = selective bacterial rRNA inhibition in E. coli; E. coli WT GFP vs humanized-ribosome RFP mutants, fluorescence, 24 h; active compounds read low; DMSO median 0, no signal -100; GFP signal change (wild-type ribosome), % (concentration not given with the values); 350,000 compounds, 1.6% hits;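 active means significant combined selectivity score with lowered wild-type GFP, culture density cut under 30%, mutant RFP and density less affected; inactive means any of these conditions unmet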; further: one replicate is shown; some compounds called inactive have numbers as strong as hits
E coli growth = blocks Escherichia coli growth. OD600, 23 h; active compounds read low. OD600 absorbance (test concentration not listed). 330,000 compounds, 0.21% hits. AID 1053175;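 active means OD600 absorbance below the run mean of sample wells minus 3.6 SD, in any replicate, cut at about 0.56 in these data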;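 further: stock transfer was 300 nL into about 60 µL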
Beta cell apopt = blocks beta cell apoptosis | INS-1E cytokine-induced death, ATP luminescence, 48 h; percent of positive-control rescue, neutral wells zero | 300,000 compounds, 0.8% hits | protection from apoptosis, % (no concentration beside the values);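 active means all replicates at 75% or more, or half of them and the mean; inconclusive means half reach 75% but not the mean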;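 further: 0% = cytokine-treated negative control wells and 100% = positive control rescue; higher means more ATP so stronger rescue from cytokine killing; wells of about 40 µL received 100 nL stock; the first replicate is given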
FGF22 binding = shifts melting point of recombinant human FGF22. Q9HCT0. recombinant FGF22 thermal shift, SYPRO orange fluorescence; percent of sucrose octasulfate shift, DMSO zero. calls only at 9.99 µM. 340,000 compounds, 1.5% hits. AID 651658;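 active means melting point raised past a set limit in the mean and every replicate; inconclusive means no clear call; three in four hits are not shown here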
Target sequence (Q9HCT0 whole entry, looked up): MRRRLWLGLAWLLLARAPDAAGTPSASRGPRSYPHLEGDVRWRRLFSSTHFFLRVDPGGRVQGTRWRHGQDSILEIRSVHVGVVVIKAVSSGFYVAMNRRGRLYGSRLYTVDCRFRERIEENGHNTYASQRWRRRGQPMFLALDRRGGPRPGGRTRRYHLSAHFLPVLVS
UCH37 DUB inh = inhibitors of human deubiquitinating enzyme UCH37. purified proteasome/UCH37, Ub-AMC cleavage fluorescence. Q9Y5K5. inhibition, % (no concentration beside the values). 330,000 compounds, 0.33% hits;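 active means mean of two replicates above 20%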;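 further: 0% = compound-free wells with enzyme and 100% = wells lacking proteasome; stock transfer was 100 nL into about 20 µL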
Target sequence (Q9Y5K5 whole entry, looked up): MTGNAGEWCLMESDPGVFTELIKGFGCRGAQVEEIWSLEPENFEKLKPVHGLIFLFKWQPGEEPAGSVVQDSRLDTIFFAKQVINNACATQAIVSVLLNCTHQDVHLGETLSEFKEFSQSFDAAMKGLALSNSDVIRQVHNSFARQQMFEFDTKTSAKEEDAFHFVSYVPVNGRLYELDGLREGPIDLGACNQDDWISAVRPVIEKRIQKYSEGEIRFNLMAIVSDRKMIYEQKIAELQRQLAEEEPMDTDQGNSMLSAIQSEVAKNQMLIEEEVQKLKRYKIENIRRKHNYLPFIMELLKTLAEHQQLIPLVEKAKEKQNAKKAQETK
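System: Proteasome-associated human UCH37 deubiquitinase; Input: 0.15 nM proteasome in added enzyme buffer; Also added: Ub-AMC substrate from 1 µM stock; Incubation: 30 min compound-proteasome preincubation then 25 min substrate reaction, room temperature; Detection: fluorescence, ex 355 nm, em 460 nm; Read-out: % inhibition of Ub-AMC cleavage fluorescence; Benchmarks: no-proteasome and no-compound wells.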
Ecoli rRNA inh OD600 = second read-out of Ecoli rRNA inh, no call of its own (marks repeat the call); OD600 change, %; measured here: OD600 growth;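 optical density of the mix in the first replicate; 0 = DMSO median and -100 = no signal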
Ecoli rRNA inh RFP = further read-out of Ecoli rRNA inh, marked with its call; RFP signal change, %; measured here: RFP humanized mutant strains;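 first replicate; 0 = DMSO median and -100 = no signal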
* = called active by the depositor; i = inactive; u = inconclusive; x = not tested or not shown; & = joins results of further samples.

SMILES	T cruzi inh	A1 inh	MLL AF4-AF9 inh	Ecoli rRNA inh	Ecoli rRNA inh OD600	Ecoli rRNA inh RFP	E coli growth	Beta cell apopt	FGF22 binding	UCH37 DUB inh
CCOC(=O)c1c(-c2ccc(F)cc2)cn2ccccc12	5.1	-0.3	x	x	x	x	0.695	-3.3	x	-70.6
Cc1ccc(S(=O)(=O)CCC(=O)Nc2ccccc2C)cc1	-11.6	0.6	0.6	3.0	4.8	-6.1	0.685	x	i	2.9
O=C(NCc1ccc2c(c1)OCO2)C1CCCN(S(=O)(=O)c2cccc3cccnc23)C1 (centres undefined)	3.1	1.1	-0.8	-5.5	-6.9	0.2	0.771	-12.3	i	5.9
COc1ccc(C(CNS(=O)(=O)c2ccccc2)N2CCN(C)CC2)cc1 (centres undefined)	-4.6	0.4	0.1	20.0	12.1	0.0	0.685	-2.3	i	1.6
CCOc1ccccc1NC(=O)CCc1nnc2ccc(N3CCC(C)CC3)nn12	5.3	-0.2	-3.5	-10.2	-24.6	8.7	0.735	9.6	i	1.0
COCCn1c(=O)[nH]c2cc(C(=O)Nc3cc(C)cc(C)c3)ccc2c1=O	-10.0	0.5	-14.6	1.6	4.0	-0.6	0.65	0.4	i	5.6
CC1=C(C#N)C(c2cn(-c3ccccc3)nc2-c2cccs2)C(C#N)=C(C)N1	u	-0.4	x	x	x	x	0.689	-2.8	x	-21.9
CCOc1ccc(CCNC(=O)c2oc3c(c2C)-c2[nH]ncc2CC3)cc1OCC	1.9	0.0	-7.9	-5.9	-8.5	3.1	0.739	5.9	i	2.0
O=C(O)c1c(Cl)cccc1Cl	x	-0.5	x	0.4	-1.9	-3.4	x	3.5	i	x
CCOC(=O)C1CCN(Cc2c(F)cccc2Cl)CC1	7.7	0.2	4.8	11.9	6.9	-7.3	0.689	2.4	i	5.0
COc1ccc(OC)c(C(Nc2ccccc2)P(=O)(OC(C)C)OC(C)C)c1 (centres undefined)	5.1	-0.7	1.6	-10.4	6.7	0.8	0.707	-8.1	i	4.4
CC1(C)Cc2c(sc(NC(=O)c3ccco3)c2C#N)C(C)(C)N1	-4.3	0.4	x	x	x	x	0.71	-3.2	x	2.3
COc1ccc(NC(=O)/C(C#N)=C\c2ccc(OCc3ccc(C(=O)O)cc3)c(OC)c2)cc1	-13.7	0.7	-0.2	10.0	3.4	5.5	0.727	-6.3	i	2.4
COc1ccc(C(CNC(=O)c2ccc(S(=O)(=O)N(C)C)cc2)N(C)C)cc1 (centres undefined)	7.9	-0.2	-2.0	2.8	10.7	0.2	0.59	-11.0	i	-1.4
O=C(CSCc1cc(=O)n2ccsc2n1)Nc1ccccc1	-3.6	-0.2	-1.0	8.2	13.9	-0.1	0.678	-5.3	i	-1.7
CC(C)COC(=O)NC1c2ccccc2Oc2ccccc21	1.5	0.3	-11.1	8.9	5.2	7.3	0.637	-3.0	i	0.4
COc1cc(C(=O)NCc2nnc(SCC(=O)NCCc3ccccc3)o2)cc(OC)c1OC	-17.5	0.2	-0.8	2.5	5.8	0.8	0.627	-0.3	i	1.3
COc1ccc(NC(=O)CCNC(=O)c2ccc([N+](=O)[O-])cc2)cc1S(=O)(=O)N1CCOCC1	x	x	0.2	3.7	8.7	0.0	0.699	x	i	3.0
O=C(O)CCCn1cc(NC(=O)COc2cccc(Cl)c2)cn1	-10.5	1.7	-2.7	11.0	14.4	1.9	0.644	-2.1	i	2.9
CCOc1ccc2[nH]c(=O)c(CN(Cc3ccc(C)cc3)C(=O)N3CCCC3)cc2c1	11.3	0.5	x	x	x	x	0.678	11.2	x	-10.8

Complete entries, looked up by structure:
CC1=C(C#N)C(c2cn(-c3ccccc3)nc2-c2cccs2)C(C#N)=C(C)N1 in the list: T cruzi inh = u; A1 inh = -0.4; MLL AF4-AF9 inh = x; Ecoli rRNA inh = x; Ecoli rRNA inh OD600 = x; Ecoli rRNA inh RFP = x; E coli growth = 0.689; Beta cell apopt = -2.8; FGF22 binding = x; UCH37 DUB inh = -21.9
COc1ccc(C(CNC(=O)c2ccc(S(=O)(=O)N(C)C)cc2)N(C)C)cc1 (centres undefined) in the list: T cruzi inh = 7.9; A1 inh = -0.2; MLL AF4-AF9 inh = -2.0; Ecoli rRNA inh = 2.8; Ecoli rRNA inh OD600 = 10.7; Ecoli rRNA inh RFP = 0.2; E coli growth = 0.59; Beta cell apopt = -11.0; FGF22 binding = i; UCH37 DUB inh = -1.4

Carrying on.
SMILES	T cruzi inh	A1 inh	MLL AF4-AF9 inh	Ecoli rRNA inh	Ecoli rRNA inh OD600	Ecoli rRNA inh RFP	E coli growth	Beta cell apopt	FGF22 binding	UCH37 DUB inh
CCCCCCSc1ccc([C@H]2N[C@@](CC(C)C)(C(=O)OC)[C@H]3C(=O)N(C)C(=O)[C@@H]23)cc1	24.3	1.5	-2.6	2.6	11.4	-2.9	0.799	0.2	i	2.9
COCCn1c(=O)[nH]c2cc(C(=O)N3CCN(c4ccccc4F)CC3)ccc2c1=O	0.7	-0.2	x	x	x	x	0.7	-6.1	x	-0.1
COc1cc(C(=O)NCc2nnc(SCC(=O)N3CCCCC3)o2)cc(OC)c1OC	-6.1	1.1	x	x	x	x	0.714	3.0	x	1.3
Cc1nn(CC2CC2)c(=O)n1-c1ccccc1F	-4.5	-0.1	0.2	9.8	6.5	1.8	0.661	-4.1	i	0.2
Cc1ccccc1Cn1ccc(-c2ccc(Cl)cc2)c(C#N)c1=O	-18.5	0.0	x	x	x	x	0.643	1.2	x	-85.0
O=C(NCc1cccnc1)c1cccnc1Sc1ccc(Cl)cc1	-5.7	1.1	-12.7	-12.0	-16.0	-10.9	0.692	1.9	i	3.6
CCOC(=O)C1=C(N2CCCCC2)c2cc3c(n2C1=O)CCCC3	14.5	-0.9	x	x	x	x	0.705	x	x	7.3
CC(C)(C)C1CCc2c(sc(NC(=O)c3ccncc3)c2C(N)=O)C1 (centres undefined)	13.6	0.0	0.1	0.8	3.2	0.2	0.689	8.9	i	-36.7
CCOC(=O)c1nn(-c2ccc(Cl)cc2)c(=O)c(C#N)c1C	-5.3	0.7	0.3	7.8	-2.5	-0.6	0.655	-3.1	i	-7.2
Cc1ccc(Oc2ccc(C=O)cn2)cc1	-16.4	-1.2	0.6	6.9	3.1	-4.4	0.692	-2.8	x	-0.2
CCC1(CC)CNC(=O)NC1	x	x	-55.4	19.0	10.3	4.3	0.671	x	i	2.0
CCOC(=O)c1sc(-c2ccc(C(F)(F)F)cc2)nc1O	-1.6	0.2	0.1	-7.0	-18.6	6.8	0.682	-16.6	i	-26.0
COCCCNC(=O)CCc1ccc(S(=O)(=O)Nc2ccc(C)cc2)cc1	9.6	0.1	x	x	x	x	0.678	0.7	x	0.3
O=C(Nc1c2c(nn1-c1ccc([N+](=O)[O-])cc1)CS(=O)(=O)C2)c1ccco1	-9.7	1.0	1.1	0.8	5.1	-3.5	0.659	-0.9	i	4.9
CC(=O)NC1(C(F)(F)F)C(=O)Nc2c1c(=O)[nH]c(=O)n2CCc1ccccc1 (centres undefined)	-6.0	0.5	-0.5	4.8	10.0	0.9	0.598	0.6	i	1.4
O=C(CN1C(=O)/C(=C/c2ccccc2)SC1=S)N1CCN(CCc2ccccn2)CC1	9.4	-0.3	3.2	-11.2	2.7	0.6	0.712	-31.5	i	7.7
Nc1cc(C(F)(F)F)ccc1OCC1CCCO1 (centres undefined)	2.5	0.3	-1.2	2.4	11.9	-4.2	0.652	-4.3	i	6.7
CC(C)(C)c1ccc(NC(=O)COC(=O)CCc2nc3ccccc3c(=O)[nH]2)cc1	3.9	0.7	2.1	4.5	-4.8	-1.0	0.65	-3.0	i	3.6
COC(=O)c1nnn(-c2nonc2N)c1COc1ccc(C=O)cc1OC	-5.1	0.6	-10.1	9.7	3.1	2.7	0.68	-5.3	i	2.2
O=C(C=Cc1cccs1)c1ccc(Cl)s1	x	x	8.1	-4.3	-48.4	-2.6	0.637	x	i	-2.2
CC(NC(=O)Nc1ccccc1C(F)(F)F)C1CCCO1 (centres undefined)	-2.1	1.0	x	x	x	x	0.681	0.3	x	5.1
COC(=O)c1ccccc1OCC(=O)N1CCN(c2ccc(OC)cc2)CC1	1.7	-0.2	x	x	x	x	0.699	2.7	x	-1.1
CN1CCN(NC(=O)c2cn(-c3ccccc3)nc2-c2cccs2)CC1	16.6	-0.5	1.7	10.8	6.9	0.7	0.685	-3.6	i	0.3
Cc1nc2c3ccccc3nc(NNC(=O)CCC(=O)NCCC(C)C)n2n1	-20.4	0.8	3.2	3.0	5.8	0.4	0.681	-4.1	i	1.5
O=C(O)C1=C[C@H](C2CC2)C[C@H](OCc2ccc(CO)cc2)O1	-16.6	-0.9	-4.3&-1.8	4.2	7.4	4.3	x	-4.7	i	1.9
CCN1CCN(C(=O)CCN2C(=O)c3ccccc3S2(=O)=O)CC1	-15.9	1.2	-1.1	10.0	3.7	-2.6	0.64	x	i	0.4
O=c1c2ccccc2ncn1C1CCCCC1	1.3	0.6	x	x	x	x	0.674	-1.2	x	0.0
COc1cc(NC(=O)C2CCCN2S(=O)(=O)c2ccc3c(c2)CC(C)N3C(C)=O)cc(OC)c1 (centres undefined)	3.9	0.0	0.4	-3.2	2.5	2.1	0.686	x	i	4.4
CC(C)(C)CC(C)(C)n1nnnc1N	x	x	-4.5	5.7	16.5	3.9	0.696	x	i	1.1
COc1ccc(C)cc1N(C(=O)c1ccco1)C(C(=O)NC1CCCC1)c1cc(OC)c(OC)c(OC)c1 (centres undefined)	-11.2	0.1	-5.1	0.9	-4.8	1.3	0.702	1.7	i	3.1
CC(C)N1C(=O)CN(C2CCCCCC2)C(=O)C1c1ccccc1F (centres undefined)	20.6	0.2	-3.2	4.6	6.8	2.5	0.747	-1.3	i	-2.5
CON(C)c1nc(OCC#N)nc(N(C)C)n1	-9.7	1.0	-2.3	-1.2	0.1	0.3	0.713	-3.3	i	1.0
Cc1ccc(C(=O)NN2C(=O)C3C4c5ccccc5C(c5ccccc54)C3C2=O)cc1 (centres undefined)	-18.2	0.4	x	x	x	x	0.678	1.1	x	2.6
COc1ccc(CC(C)CC(=O)NCCc2ccc(OC)c(OC)c2)cc1 (centres undefined)	-1.1	0.0	-12.3	-6.6	-11.4	-2.1	0.677	0.9	i	2.1
CCCCn1c(SCC(=O)NCc2ccco2)nc2c1c(=O)n(C)c(=O)n2C	-14.6	0.2	x	x	x	x	0.734	-4.5	x	1.8
Cc1cccn2c(=O)c3cc(C(=O)N4COCC4(C)C)sc3nc12	2.6	-0.2	-2.5	1.5	2.7	-0.6	0.655	1.1	i	-303.8
Cc1ccnc2nc(C(=O)OCC(=O)N3CCc4ccccc43)nn12	-3.9	0.5	0.2	5.8	15.3	4.1	0.688	2.7	i	0.1
COc1cccc(CNC(=O)c2ccc(OC)c(S(=O)(=O)NC3CCCC3)c2)c1	-2.5	-0.4	9.1	-4.3	-15.3	0.2	0.669	-1.5	i	0.4
CCCCNC(=O)Cn1c(=O)oc2cc(S(=O)(=O)N3CC(C)CC(C)C3)ccc21 (centres undefined)	-4.5	0.2	-8.3	3.1	10.6	-1.9	0.731	-0.3	i	5.8

These rows are one share of the data; the hit share may differ from the screen's.
